# Screening data (PubChem)
# CapD inh = blocks the Bacillus anthracis CapD enzyme; 0.23% of 140,000 active; AID 492967; purified CapD enzyme, fluorescence intensity read-out; stronger effect = lower value; some hits fall short of the stated cut; z-score (no concentration beside the values);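 active means z-score under -4 in either of two replicates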;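 further: stock transfer was 100 nL into about 40 µL; score is relative to mean and spread of the plate; one replicate is shown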
# AID504770 = growth inhibitors of E. coli YBA685 in a screen for V. cholerae RctB (chromosome II replication) inhibitors | 0.27% of 130,000 active | E. coli YBA685 rctB-dependent plasmid, OD600 growth, 3 h; stronger effect = lower value | AID 504770 | z-score (concentration not given with the values);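 active means z-score under -2 on both plates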;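 further: wells of about 30 µL received 100 nL stock; score is relative to mean and SD of the test wells; the first replicate is given; strong numbers were not always called active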
# Active calls of the source: *; x = no result given.
entry	Molecule	CapD inh	AID504770
1	CC1CC(C)CN(c2nc3c(c(=O)[nH]c(=O)n3C)n2Cc2ccccc2F)C1 (configuration not stated)	x	0
2	CC1CC(C)CN(C(=O)c2ccc(NCc3cccs3)c(S(=O)(=O)Nc3cc(F)ccc3F)c2)C1 (configuration not stated)	-0.65	x
3	CC(=O)c1ccc(N2C(=O)c3cccc4c(Br)c([N+](=O)[O-])cc(c34)C2=O)cc1	-0.17	x
4	COc1ccc(Cl)cc1S(=O)(=O)N1CCN(C(=O)Cc2ccc(Br)cc2)CC1	-0.3	x
5	O=C(Nc1ccc(-c2csnn2)cc1)c1c(F)cccc1Cl	-0.97	x
6	Cc1nn(CCC#N)c2c1P(=Nc1ccccc1Cl)(N1CCOCC1)N(C)C(c1ccccc1F)=N2 (configuration not stated)	x	-0.8
7	Cc1nnsc1C(=O)N1CCC(C(F)(F)F)CC1	0.31	-0.15
8	CN1CCCN(C(=O)c2sc3ccccc3c2Cl)CC1	-1.5	-0.8
9	CC1=C(C(N)=O)C(c2cccnc2)n2nnnc2N1 (configuration not stated)	-0.24	-1.1
10	O=C(NCCc1ccccc1)c1cc(-c2ccc3c(c2)OCO3)on1	0.065	1.1
11	CCC(C)N(C(=O)/C=C/c1cccs1)C(C)CC (configuration not stated)	-1.9	-0.05
12	Cn1c(=O)c2cc(C(=O)NCC3(c4ccccc4)CCCC3)sc2c2ccccc21	-2.1	-0.45
13	COc1ccc(/C=C2\SC(=N)N(c3ccc4c(c3)OCO4)C2=O)cc1	-0.63	x
14	COc1ccc(-c2noc(N3CCC(C(=O)Nc4cccc(OC)c4)CC3)n2)cc1	-1.2	-0.3
15	N#Cc1cc(C(=O)c2ccccc2)[nH]c1N1CCN(c2ccccn2)CC1	-1.3	x
16	CCCC(=O)Nc1nnc(-c2cccc(OCC)c2)s1	-0.74	0.6
17	Cc1ccc(CCNC(=O)c2ccc3nc(-c4ccco4)c(-c4ccco4)nc3c2)cc1	-0.37	-0.15
18	O=c1[nH]c2ccccc2n1CCCSc1cc(C(F)(F)F)c2cc3c(cc2n1)OCO3	x	-0.4
19	CC12CC(c3ccccc3O1)C(c1nnc(-c3cccc(F)c3)o1)C(=O)N2 (configuration not stated)	0.4	x
20	CN(C)C(=O)COc1ccccc1C(=O)O	x	0

# 2 entries from above, in transposed form:
(16) CCCC(=O)Nc1nnc(-c2cccc(OCC)c2)s1
(17) Cc1ccc(CCNC(=O)c2ccc3nc(-c4ccco4)c(-c4ccco4)nc3c2)cc1
Screen / compound no. | 16 | 17
CapD inh | -0.74 | -0.37
AID504770 | 0.6 | -0.15

# Additional compounds follow.
entry	Molecule	CapD inh	AID504770
21	COc1ccc(CCN(C)c2nnnn2-c2ccccc2)cc1OC	x	-0.4
22	O=C(c1cc2cc(Br)ccc2oc1=O)N1CCOCC1	-0.8	0.4
23	O=S(=O)(CCN1CCN(c2ccccc2)CC1)c1ccc(F)cc1	-0.53	0.05
24	O=C(CSC1=NNC(c2ccccn2)S1)Nc1cccc(Cl)c1 (configuration not stated)	-0.065	0
25	CC(=O)N1c2ccccc2C2=NNC(=S)NC21O (configuration not stated)	0.12	-0.5
26	CCOC(CNC(=O)c1c[nH]c2ccc(S(=O)(=O)N(C)c3cc(C)ccc3C)cc2c1=O)OCC	3.6	x
27	CCc1ccc(N=c2ssc3c2-c2cc(C)c(C)cc2NC3(C)C)cc1	-0.67	x
28	CCOC(=O)c1nc2cc3n(c(C)c-2c1C)C(C)C=C3C (configuration not stated)	-0.26	x
29	O=C(N/N=C/c1ccc(Cl)c(Cl)c1)N/N=C/c1ccc(Cl)c(Cl)c1	-0.96	x
30	COC(=O)C(C)Nc1ncnc2onc(C)c12 (configuration not stated)	0.3	-1.6
31	CCc1cc(=O)[nH]c(-c2ccc(F)c(Cl)c2)n1	-0.18	1.5
32	N#CC1(C#N)C(C(=O)c2ccc(F)cc2)C12CCSCC2 (configuration not stated)	x	-0.05
33	CC(NC(=O)c1cccc(S(C)(=O)=O)c1)c1ccc2c(c1)OCCO2 (configuration not stated)	x	-0.45
34	OCCNc1nc2ccccc2nc1-c1ccccc1	46	2.1
35	COc1ccc(OCCNC(=O)OCCc2ccccc2OC)cc1	-0.38	x
36	C/C(=C/C(=O)Nc1ccc(Oc2nc(C)cc(C)n2)cc1)C(=O)O	-0.045	x
37	CCN1C(=O)c2cccc3c(NC(=O)C4CCCCC4)ccc1c23	0.15	1.6
38	CC(C)Cn1cc(C(=O)N2CCN(Cc3ccc4c(c3)OCO4)CC2)c2c3ccccc3n(C)c2c1=O	63	0.2
39	CC1CN(S(=O)(=O)c2cccc3nsnc23)CC(C)O1 (configuration not stated)	-0.35	-0.15
40	CCOc1ccc(SCC(=O)O)cc1	x	0.55
41	O=c1nc2n(c3sc4c(c13)CCCC4)Cc1ccccc1C2	x	0.2
42	O=C(O)Cn1c(-c2ccccc2)nc2ccccc21	0.32	-0.05
43	O=S(=O)(c1cccs1)N(c1cccc(F)c1)S(=O)(=O)c1cccs1	x	0.1
44	COc1ccc(N/N=C(\C#N)C(=O)Nc2ccc(C)c(C)c2)cc1	x	1.4
45	Cc1cc(C)c(/C=c2/sc3nc4cc(Br)cnc4n3c2=O)cc1C	0.63	x
46	CCC(=O)Nc1cccc(C(=O)N/N=C/c2ccc(NC(C)=O)cc2)c1	4.1	x
47	CCCc1nc2ccccc2n1CC(=O)c1ccc(F)cc1	0.04	0.05
48	O=c1cc(CN2CCN(c3ccc(F)cc3)CC2)occ1OCC1OCCO1	x	-1.1
49	Cc1cc(C(=O)Cn2cnnc2C#N)c(C)n1CCc1ccc(Cl)cc1	x	0.2
50	FC(F)(F)c1cnc2c(-c3ccc(Cl)cc3Cl)onc2c1	0.38	-0.75
51	CCCCCOc1ccc(NC(=O)C(C)(C)C)cc1	x	0.9
52	CCn1nc(C)c(NC(=S)Nc2ccc(OC)c(OC)c2)c1C	0.015	-1
53	CC(C)CCNc1nc2ccccc2n2cnnc12	33	-0.1
54	Cc1ccc(NC(=O)CCc2ccc(C)o2)cc1	-0.17	-0.45
55	C[C@H](NC(=O)c1ccc(F)cc1)c1nc2ccccc2[nH]1	x	-0.35
56	Cc1n[nH]c(C)c1CCNC(=O)Nc1ccccc1-c1ccccc1	0.06	-0.55
57	O=c1[nH]nc(SCc2cscn2)n1CCc1ccccc1	x	-0.25
58	Cc1ccc(-n2c(C)cc(CO)c2C)cc1	x	-1.6
59	CCCNS(=O)(=O)c1cc(Br)cc2c1N(C(=O)CC)CC2	0.21	0.2
60	O=S(=O)(c1cccc(-c2nnco2)c1)N1CCCC1	x	1.4
61	COc1ccc(C2=NN3C(C2)c2cc(Br)ccc2OC32C(=O)Nc3ccccc32)cc1 (configuration not stated)	1	x
62	CCN(CC)C1c2cccc3cccc(c23)C1NS(=O)(=O)c1ccc(Cl)cc1 (configuration not stated)	0.72	x
63	CCOc1ccc(S(=O)(=O)c2c(C(=O)c3ccc(C)c(C)c3)cnc3ccc(F)cc23)cc1	-0.58	-1.1
64	CCOC(=O)Cn1nc(-c2ccccc2)c2cnc3ccc(CC)cc3c21	0.35	-0.45
65	Cc1ccccc1C(=O)Nc1ccc2c3c1C1C=CCC1CN3CC1CC=CC21 (configuration not stated)	5.9	x
66	CCN1CCN(C(=O)/C=C\C(=O)O)CC1	0.49	-0.5
67	CC(=O)c1sc(N2N=C(c3cccs3)CC2c2ccco2)nc1C (configuration not stated)	4.8	x
68	Cc1c(CN2CCSCC2)c(=O)n(-c2ccccc2)n1C	-0.24	0.45
69	O=C(Cn1nnc(-c2ccccc2)n1)N1CCCCC1	x	-0.7
70	CC(=O)N1CC(C)Oc2ccc(S(=O)(=O)N(Cc3ccccc3)C(C)C)cc21 (configuration not stated)	0.09	2.5

# New compounds follow
entry	Molecule	CapD inh	AID504770
71	Cc1cc(S(=O)(=O)Nc2cc(C(=O)NCc3ccco3)ccc2N2CC3CC(C2)c2cccc(=O)n2C3)ccc1F (configuration not stated)	0.045	x
72	CS(=O)(=O)Cc1nc2ccccc2[nH]c1=O	23	x
73	Cc1nc(CS(=O)(=O)c2ccccc2)cc(Sc2ccccc2Cl)n1	0.14	x
74	CCOC(=O)N1CCN(C(=O)c2cnn3c(C(F)(F)F)cc(-c4ccc(OC)c(OC)c4)nc23)CC1	-0.39	x
75	Cn1c(=Nc2ccc(N3CCOCC3)cc2)ccc2ccccc21	-0.36	-0.6
76	O=C(NC(=S)N1CC2CC(C1)c1cccc(=O)n1C2)c1ccc(Br)cc1 (configuration not stated)	0.06	x
77	O=c1c(=NNc2ccccc2)c(=O)c2ccccc12	-0.2	1.1
78	O=C(c1cc2c(s1)-c1ccsc1CC2)N1CCN(c2ccccc2)CC1	8.1	0.9
79	O=c1cc(CSc2nc3c(sc(=S)n3Cc3ccco3)c(=O)n2-c2ccccc2)c2ccc(O)cc2o1	0.04	-0.05
80	CCc1ccc(C(=O)CC2(O)C(=O)N(C(C)C)c3ccccc32)cc1 (configuration not stated)	x	0.35

# Compound profiles (already shown).
# CCOC(=O)N1CCN(C(=O)c2cnn3c(C(F)(F)F)cc(-c4ccc(OC)c(OC)c4)nc23)CC1 as listed: CapD inh = -0.39; AID504770 = x
# O=C(NC(=S)N1CC2CC(C1)c1cccc(=O)n1C2)c1ccc(Br)cc1 (configuration not stated) as listed: CapD inh = 0.06; AID504770 = x

# Further records follow.
entry	Molecule	CapD inh	AID504770
81	COC(=O)c1ccc2c(=O)n(CCc3ccc(S(N)(=O)=O)cc3)c(SCC(=O)Nc3ccc(N(C)C)cc3)nc2c1	-0.085	x
82	COc1cccc2cc(-c3cc(=O)oc4ccc(OC(=O)N5CCOCC5)cc34)oc12	x	-0.75
83	Nc1ncnc2nc(N3CCCC3)ncc12	1.5	-0.9
84	Cc1ccc(NC(=O)Cn2cnc3onc(C)c3c2=O)cc1C	0.28	-1.5
85	Cc1cccc(NC(=O)CC2CC3CCC2C3)c1 (configuration not stated)	2.8	-1.5
86	O=C(/C=C/c1ccccc1)NC1CCCc2ccccc21 (configuration not stated)	0.71	0.3
87	C=CCOc1c(Br)cc(/C=C2\NC(=S)NC2=O)cc1OCC	0.16	x
88	CCc1ccc(-c2cc3c(=O)n(CC(=O)NC(C)CCc4ccccc4)nc(C)n3n2)cc1 (configuration not stated)	0.24	0.65
89	COc1ccc(Cl)cc1S(=O)(=O)NC1Cc2ccccc2C1	-0.26	x
90	FC(F)(F)c1ccc(Cl)nc1Cl	x	-0.7
91	Cc1ccc(-n2nc3c(c2NC(=O)C2CCCC2)CS(=O)C3)cc1 (configuration not stated)	0.23	0.15
92	CC(C)CCN(C)C1CCN(C(=O)Nc2ccc(Cl)c(Cl)c2)CC1	0.09	-0.75
93	O=C(O)c1cc2cccc([N+](=O)[O-])c2[nH]1	-4.6*	x
94	CN(Cc1ccccc1)C1(O)C(=O)Nc2ccc(Br)cc21 (configuration not stated)	-0.98	0.1
95	CCOc1ccc(C2=NC3(CCN(C(C)C)CC3)NC(c3cc(Cl)ccc3O)C2)cc1 (configuration not stated)	0.085	1.4
96	CC(C)(C)c1cc(SCCC#N)cc(C(C)(C)C)c1O	0.17	-2.2*
97	COc1ccccc1NC(=O)CSc1nnc(-c2cc3sccc3n2C)n1-c1c(C)cc(C)cc1C	-0.9	-0.85
98	CCOC(=O)c1ccc2c(N)c(-c3cccnc3)sc2n1	-0.94	1.6
99	CCN(CC)S(=O)(=O)c1ccc(C(=O)NCC(=O)Nc2nc3ccccc3[nH]2)cc1	x	0.2
100	CCOC(=O)Cn1cc2c(c1-c1ccccc1Br)c(=O)n(C)c(=O)n2C	3.6	1.3
101	CCOC(=O)N1CCN(C(=O)N2c3ccccc3Sc3ccccc32)CC1	-0.36	1.3
102	CN(C(=O)c1ccc2c(c1)OCO2)C1CCCCC1	0.47	-0.4
103	O=S(=O)(NCc1ccco1)c1ccc(-c2ccc(S(=O)(=O)NCc3ccco3)cc2)cc1	x	-0.45
104	Cc1cc2cc3c(cc2nc1SCC(=O)OC(C)C)OCO3	x	0.2
105	O=[N+]([O-])c1ccc(Oc2nc(C(F)(F)F)nc3ccccc23)c(Cl)c1	-0.12	x
106	O=C(NCc1ccco1)NC1CCCN1S(=O)(=O)c1ccc(Cl)cc1 (configuration not stated)	x	0.35
107	CCc1ccc(OCC(O)CN2CCCCC2)cc1 (configuration not stated)	-0.23	-1
108	CCCC(=O)N=c1sc2cc(Cl)ccc2n1CC	0.11	0.25
109	CCCCNC1=NCCCS1	x	-1.1
110	Cc1ccc(N2CN=c3s/c(=C4\C(=O)N(C)c5ccccc54)c(=O)n3C2)cc1	0.59	-0.05
111	CCc1ccc(N2CC(O)(c3cccc([N+](=O)[O-])c3)[N+]3=C2SCCC3)cc1 (configuration not stated)	-0.27	x
112	CCC(C(=O)NCc1ccco1)n1nc(-c2ccc(OC)cc2)ccc1=O (configuration not stated)	x	0
113	CC(C)(C)c1ccc(-c2cc(N)n[nH]2)cc1	0.46	1.4
114	Cc1ccc(C(=O)Nc2nnc(CCS(=O)(=O)c3ccc(Br)cc3)s2)cc1	-0.13	x
115	COC(=O)C(Cc1ccccc1)NS(=O)(=O)c1ccc(OC)cc1 (configuration not stated)	x	-0.4
116	Nc1nonc1-n1nnc(C(=O)O)c1-c1ccccc1	-0.17	0.35
117	CCOC(=O)c1cccc(NC(=O)N2CCSc3ccccc32)c1	-0.56	0.9
118	Cc1ccc(C2CC(c3ccc(Br)cc3)=NN2C(=O)CSc2nnc(CNC(=O)c3ccco3)n2C)cc1 (configuration not stated)	0.91	x

# Structural class: the entries above with a nitro group on carbon.
entry	Molecule	CapD inh	AID504770
3	CC(=O)c1ccc(N2C(=O)c3cccc4c(Br)c([N+](=O)[O-])cc(c34)C2=O)cc1	-0.17	x
93	O=C(O)c1cc2cccc([N+](=O)[O-])c2[nH]1	-4.6*	x
105	O=[N+]([O-])c1ccc(Oc2nc(C(F)(F)F)nc3ccccc23)c(Cl)c1	-0.12	x
111	CCc1ccc(N2CC(O)(c3cccc([N+](=O)[O-])c3)[N+]3=C2SCCC3)cc1 (configuration not stated)	-0.27	x
